UCH37 inh: human UCH37 deubiquitinating enzyme inhibition | purified proteasome/UCH37, Ub-AMC cleavage fluorescence | inhibition, % (no concentration beside the values) | 0.33% of 330,000 active | AID 588478;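 active = mean of two replicates above 20%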;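 note: 0% = compound-free wells with enzyme and 100% = wells lacking proteasome; stock transfer was 100 nL into about 20 µL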
Target sequence (Q9Y5K5 whole entry, looked up): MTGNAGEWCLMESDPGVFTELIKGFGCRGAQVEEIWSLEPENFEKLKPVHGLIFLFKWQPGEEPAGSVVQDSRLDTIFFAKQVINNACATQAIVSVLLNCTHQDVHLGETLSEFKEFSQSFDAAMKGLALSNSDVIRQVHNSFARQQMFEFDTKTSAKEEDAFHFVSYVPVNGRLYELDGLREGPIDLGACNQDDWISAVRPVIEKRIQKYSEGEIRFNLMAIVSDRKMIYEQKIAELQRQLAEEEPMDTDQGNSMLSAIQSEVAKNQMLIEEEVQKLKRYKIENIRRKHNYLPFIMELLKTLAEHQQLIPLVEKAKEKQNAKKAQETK
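Test system – human UCH37 enzyme supplied as purified proteasome complex · Incubation – 30 min preincubation with enzyme, 25 min cleavage at room temperature · Detection – AMC fluorescence from Ub-AMC cleavage, excitation 355 nm, emission 460 nm · Benchmarks – no-proteasome wells (full inhibition) and compound-free wells (no inhibition)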
RanGTP-Impb inh: disruptors of Ran-importin-beta complex formation – biochemical, FRET, CFP-Ran, YFP-importin-beta, homogeneous, primary screen. 1.1% of 300,000 active. inhibition, % (test concentration not listed). cell-free CFP-Ran/YFP-importin-beta FRET ratio. AID 2216;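 active = most replicates above 15%; inconclusive = exactly half above 15%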;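 note: 0% = DMSO wells and 100% = Ran loaded with GDP instead of GTP; wells of about 40 µL received 100 nL stock; the first replicate is given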
Ecoli growth: inhibitors of Escherichia coli growth; 0.21% of 330,000 active; OD600, 23 h; hits give low values; AID 1053175; OD600 absorbance (test concentration not listed);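 active = OD600 absorbance below the run mean of sample wells minus 3.6 SD, in any replicate, cut at about 0.56 in these data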;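 note: stock transfer was 300 nL into about 60 µL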
HNF4A DNA FP: change in binding of human HNF4 alpha to DNA; P41235; HNF4a-FITC DNA binding, fluorescence polarization, 1 h; activity change, % at 10 µM; 0.3% of 360,000 active; in the data active = activity change above about 30%, passing the limit was not always enough;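 note: controls were the assay level and a saturating level of protein; the project sought stronger binding though the title names inhibitors; some compounds called inactive have numbers as strong as hits; positive values seem to mean higher polarization but the record does not say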
Vif A3G: HIV-1 Vif–A3G interaction blockers – biochemical, TR-FRET, GST-Vif 1-94, biotin-A3G peptide, dose response retest, primary screen (AID 1117319). 0.57% of 260,000 active. inhibition, %, or IC50 in µM where a hit was titrated. TR-FRET GST-Vif / biotin-A3G peptide binding; higher % means a stronger effect; test concentration not given here; strong numbers were not always called active;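 active = above the screen mean plus three standard deviations and confirmed in dose response; inconclusive = results disagree or hit not tested in dose response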;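 note: Vif residues 1-94 fused to GST binding biotinylated APOBEC3G peptide 110-148; 0% = full assay without inhibitor and 100% = GST in place of GST-Vif; retest series ran down from 100 µM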
FGF22 binding: shifts melting point of recombinant human FGF22; 1.5% of 340,000 active; recombinant FGF22 thermal shift, SYPRO orange fluorescence; percent of sucrose octasulfate shift, DMSO zero; calls only at 9.99 µM;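 active = melting point raised past a set limit in the mean and every replicate; inconclusive = no clear call; three in four hits are not shown here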
Target sequence (Q9HCT0 whole entry, looked up): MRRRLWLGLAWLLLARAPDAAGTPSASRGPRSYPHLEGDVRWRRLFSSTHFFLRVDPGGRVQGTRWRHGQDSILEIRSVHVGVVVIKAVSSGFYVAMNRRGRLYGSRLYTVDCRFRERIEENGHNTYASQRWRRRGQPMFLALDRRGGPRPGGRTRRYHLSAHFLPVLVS
MLL AF4-AF9 inh: blocks AF4 peptide binding to human AF9. P42568. AlphaScreen, biotin-AF4 peptide binding to FLAG-AF9. inhibition, % at 10 µM. 0.47% of 350,000 active. AID 651704;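 active = every replicate reaching a set inhibition limit, whatever the replicate mean, cut at about 25% in these data; inconclusive = mean inhibition reaches that limit but some replicates miss it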;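 note: 0% = plate neutral control median and 100% = total signal loss; the record names both 10 and 1 µM as test concentration; the first replicate is given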
Target sequence (P42568 whole entry, looked up): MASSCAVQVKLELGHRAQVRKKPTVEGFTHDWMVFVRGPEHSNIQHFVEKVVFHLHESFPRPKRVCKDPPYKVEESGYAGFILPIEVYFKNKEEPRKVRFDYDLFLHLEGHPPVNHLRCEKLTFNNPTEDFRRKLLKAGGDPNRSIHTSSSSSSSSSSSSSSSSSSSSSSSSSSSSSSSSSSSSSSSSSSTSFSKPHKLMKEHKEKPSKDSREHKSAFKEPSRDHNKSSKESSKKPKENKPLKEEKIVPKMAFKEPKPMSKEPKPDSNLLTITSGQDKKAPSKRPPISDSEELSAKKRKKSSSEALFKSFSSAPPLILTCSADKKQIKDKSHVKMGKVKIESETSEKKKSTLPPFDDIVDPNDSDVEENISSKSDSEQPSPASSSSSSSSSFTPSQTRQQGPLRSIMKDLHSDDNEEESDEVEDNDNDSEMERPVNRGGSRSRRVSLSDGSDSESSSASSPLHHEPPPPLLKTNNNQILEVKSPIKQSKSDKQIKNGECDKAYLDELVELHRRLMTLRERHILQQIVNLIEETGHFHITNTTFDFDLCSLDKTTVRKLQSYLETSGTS
Active calls of the source: *; i = inactive; ? = inconclusive; . = no result given; & = joins results of further samples.

SMILES	UCH37 inh	RanGTP-Impb inh	Ecoli growth	HNF4A DNA FP	Vif A3G	FGF22 binding	MLL AF4-AF9 inh
O=C1CCc2cc(S(=O)(=O)NC3CCCCC3)ccc2N1	0.4	.	0.7	0.5	.	i	1.1
COc1cccc2c(N/N=C/c3ccccc3)cc(C)nc12	.	3.4	.	0.0	-6%	i	4.8
CCOc1cc2nc(-c3ccc(OC)c(OC)c3)nc(NCCCN3CCOCC3)c2cc1OC	-48	0.9	0.67	7.5	-7%	.	.
CCOc1ccc(-c2ccc(NS(=O)(=O)c3cc([N+](=O)[O-])c(C)c([N+](=O)[O-])c3)cc2)nn1	3.8	2.1	0.64	-2.1	.	i	-2.9
O=C(NCc1ccccc1F)C1CC(=O)N(c2ccc3c(c2)OCCO3)C1 (stereo not given)	1.5	8.4	0.65	-3.9	2%	i	3.1
O=C1/C(=C/c2cccs2)SC(=S)N1CC(=O)N1CCCCC1CCO (stereo not given)	6.5	-0.6	0.71	1.1	.	i	9.1
Cc1cc(-n2nc(C)cc2C)n2nc(C)c(-c3ccc(Cl)cc3)c2n1	-0.4	2.5	0.77	0.5	-2%	.	.
COc1ccc(CC(=O)Nc2ccc(C)cc2O)cc1S(=O)(=O)N1CCOCC1	1.2	1.0	0.7	3.4	5%	i	3.6
C=CCNC(=O)COC(=O)c1nc2nccc(C)n2n1	2.7	-0.3	0.66	3.4	1%	.	-0.9
Cc1ccc(CN2C(=O)N/C(=C\c3cccn3-c3cccc(C(=O)O)c3)C2=O)cc1	8.8	0.8	0.75	-26	?	i	0.1
Cc1ccc(C)c(NC(=O)NNC(=O)c2cc3occc3[nH]2)c1	-0.3	1.6	0.69	0.6	.	i	-1.8
CCOC(=O)c1cnc2c(C)cccc2c1Nc1ccc(N2CCOCC2)cc1	2.9	-1.0	0.71	.	1%	.	.
Cc1cccc(-n2ncc3c(NCCCO)ncnc32)c1	2.7	5.5	0.71	-3.2	-4%	i	3.0
COc1cccc(N(C(C)=O)c2nc(C)cc(C)c2C#N)c1	0.4	3.5	0.64	0.1	30%	.	.
CC(=O)N(C(C)=O)S(=O)(=O)c1ccc(N=NN2CCOCC2)cc1	3.1	-0.8	0.62	-1.5	9%	i	-0.5

Gathered by group: the compounds so far containing an aryl methoxy group.
SMILES	UCH37 inh	RanGTP-Impb inh	Ecoli growth	HNF4A DNA FP	Vif A3G	FGF22 binding	MLL AF4-AF9 inh
COc1cccc2c(N/N=C/c3ccccc3)cc(C)nc12	.	3.4	.	0.0	-6%	i	4.8
CCOc1cc2nc(-c3ccc(OC)c(OC)c3)nc(NCCCN3CCOCC3)c2cc1OC	-48	0.9	0.67	7.5	-7%	.	.
COc1ccc(CC(=O)Nc2ccc(C)cc2O)cc1S(=O)(=O)N1CCOCC1	1.2	1.0	0.7	3.4	5%	i	3.6
COc1cccc(N(C(C)=O)c2nc(C)cc(C)c2C#N)c1	0.4	3.5	0.64	0.1	30%	.	.

The list continues:
SMILES	UCH37 inh	RanGTP-Impb inh	Ecoli growth	HNF4A DNA FP	Vif A3G	FGF22 binding	MLL AF4-AF9 inh
CCOC(=O)c1ccc(NC(=O)CC2OCCN(CC)C2=O)cc1 (stereo not given)	3.2	1.7	0.68	7.5	-2%	.	.
O=C(/C=C/c1ccc(NC(=O)c2ccccc2-c2ccccc2C(=O)O)cc1)c1ccccc1	-12	7.3	0.67	31	0%	i	3.1
CC(=O)C(=Nc1ccc(Cl)cc1Cl)NNc1cccc(Cl)c1	.	1.3	.	2.5	16%	.	.
CC(C)(C)c1nnc(NC(=O)c2cccs2)s1	4.9	-0.9	0.67	-2.0	.	.	-0.8
O=C(Nc1ccccc1N1CCCC1)C1CCN(S(=O)(=O)c2cccc(C(F)(F)F)c2)CC1	-0.5	-1.1	0.71	-0.3	-6%	i	-3.6
COc1ccc(C2C(=O)N(C3CCCCC3)CC(=O)N2C2CCCCC2)cc1 (stereo not given)	0.4	5.5	0.73	-2.4	3%	i	-1.1
Cc1c(C(=O)OCC(=O)N2CC(=O)Nc3ccccc32)oc2ccc(Br)cc12	2.5	-2.3	0.71	-1.4	1%	.	.
O=C(CSc1nc(-c2ccccc2)cc(=O)[nH]1)Nc1ccccn1	4.8	0.6	0.76	1.6	-7%	.	.
CC1=CC(=C(C#N)C#N)C=C(C)N1Cc1ccc(Cl)cc1	-57	-4.1	0.68	1.3	2%	i	-0.6
COc1ccc(-n2nnc3c(=O)n(CC(=O)Nc4cc(C)on4)cnc32)cc1	1.1	2.8	0.66	2.2	-4%	i	2.6
Cc1ccc(NC(=S)NNC(=O)c2ccc(N3CCOCC3)c([N+](=O)[O-])c2)cc1C	3.4	4.7	0.7	-1.1	.	.	.
Cc1ccc(S(=O)(=O)NC(=O)C2(C)CCN2C(=O)Cc2ccc(Cl)cc2Cl)nc1 (stereo not given)	.	.	.	1.3	.	i	-2.9
C#CCNC(=O)C1=C[C@@H](C2CC2)C[C@@H](OCc2ccc(CO)cc2)O1	1.6	-2.1	.	-0.8	2%	i	-14&-2.8
CN1C(=O)C(Cl)(Cl)C(=O)c2ccccc21	-103	3.4	0.69	0.8	?	.	.
Cn1c(CSc2nc3ccccc3s2)nnc1SCC(=O)NCCN1CCOCC1	0.9	-1.7	0.67	-1.7	0%	.	.
COc1ccccc1CN(C)CC(=O)NC(=O)NC1CCCCC1	2.7	.	0.62	0.3	3%	i	1.0
Cc1nc(NC(=O)/C=C/c2ccccc2)sc1C(=O)Nc1ccccc1	-59	-2.3	0.72	1.4	71%	.	.
COc1ccc(S(=O)(=O)N2CCN=C2SCc2cccnc2)cc1	-0.8	?	0.68	5.8	-6%	i	-3.3
Cc1cccc(NCN2C(=O)c3ccncc3C2=O)n1	1.0	19*	0.69	-1.6	12%	i	2.4
CCOc1ccc(Br)cc1S(=O)(=O)Nc1cccc(S(=O)(=O)NC2=NCCC2)c1	1.2	2.5	0.67	4.8	?	i	-0.3
CC(/C=C1\SC(=S)N(CCC(=O)Nc2ccc(O)cc2)C1=O)=C\c1ccccc1	7.9	1.1	0.69	0.0	.	.	-0.5
Cc1ccc(NC(=O)CSc2nnc(-c3cccnc3)n2-c2ccc(C)cc2)cc1	0.0	-0.1	0.77	2.8	4%	.	.
O=c1[nH]nc(CNc2ccc(O)cc2)c2ccccc12	4.0	-3.1	0.71	3.3	3.5µM*	.	.
Cc1cc2nc(C(C)(C)C)c(Cc3cccc(Cl)c3)n2c(C)c1Br	.	.	.	4.8	.	i	-2.8
Cc1cccc(Nc2ccccc2C(=O)OCC(=O)N(C)C2CCS(=O)(=O)C2)c1C (stereo not given)	0.2	5.4	0.66	-0.5	6%	.	.
COc1ccc(CCN(C)C(=O)c2ccc(S(=O)(=O)Nc3ccccc3F)cc2)cc1OC	-1.6	5.7	0.63	-5.8	.	i	1.3
COC(=O)C(Cc1ccccc1)NC(=O)CCNC(=O)c1ccco1 (stereo not given)	0.6	-0.5	0.72	-1.0	.	i	-3.9
Cn1c2c(c(=O)n(C)c1=O)C(c1ccccc1F)C(C#N)=C(N)O2 (stereo not given)	-0.4	1.3	0.69	2.9	0%	i	-5.7
Cc1cc(NC(=O)Nc2ccccc2Cl)no1	3.7	3.5	0.62	2.9	.	i	-11
CCN1CCN(S(=O)(=O)c2ccc(C)c([N+](=O)[O-])c2)CC1	2.0	0.9	0.65	-1.2	.	.	.
O=C(Oc1cccc2c(O)cccc12)c1ccccc1Cl	.	.	.	4.2	.	i	-1.7
CCOc1ccc(NC(=S)NC(=O)/C=C/c2ccco2)cc1	3.4	2.5	0.64	0.3	4%	i	-0.4
Cc1c(C(=O)NCc2ccc3c(c2)OCCO3)sc(=O)n1Cc1cccc(C(F)(F)F)c1	.	.	.	2.4	.	i	3.4
CCOC(=O)N1CCN(C(=O)c2cccc(S(=O)(=O)Nc3ccccc3Cl)c2)CC1	2.0	.	0.65	1.1	-9%	i	-2.2
CCOc1ccc(OCCCCNCCN)cc1	0.9	-4.1	0.68	.	5%	.	.
Cc1ccc(-c2cc(C(=O)NCCc3ccc(S(N)(=O)=O)cc3)c3ccccc3n2)cc1	-6.5	4.4	0.69	4.4	.	i	1.4
O=C(Nc1nnc(SCc2ccccc2F)s1)c1ccco1	1.3	-13	0.7	7.1	.	i	-0.8
CCOC(=O)[C@]12CCCC=C1N(Cc1ccc(Cl)cc1Cl)C(=O)[C@H](CC(=O)NCc1cccc(C(F)(F)F)c1)C2	.	.	.	-1.3	.	i	-2.6
CCN(Cc1ccccc1)C(=O)CSc1ccccc1C(=O)O	-1.1	1.1	0.68	-0.5	2%	.	-0.8
O=c1cc(-c2ccc(Cl)c(Cl)c2)[nH][nH]1	-3.1	1.6	0.73	0.4	0%	.	.
CCOC(=O)c1cc(-c2ccccc2)n(CC(=O)Nc2ccc(OC)c(OC)c2)c1C	1.2	?	0.72	-2.7	.	i	2.3
CC1=CC(C)(C)Nc2ccc(OC(=O)c3ccco3)cc21	-19	8.3	0.64	1.7	16%	.	.
Cc1ccccc1NC(=O)/C(C#N)=C/c1ccc[nH]1	6.2	-2.8	0.73	-2.0	.	i	-9.4
Cc1nn(CCO)c(C)c1Oc1ccccc1O	0.1	-0.4	0.71	-1.8	3%	.	.
CCC(Oc1ccccc1)C(=O)Nc1ccc(S(=O)(=O)N2CCOCC2)cc1 (stereo not given)	-0.3	4.1	0.68	-3.0	16%	i	-23
Cn1c(N)c(C(=O)COC(=O)CNC(=O)c2ccccc2)c(=O)n(C)c1=O	0.0	.	0.64	-0.3	-6%	i	1.1
O=C(Cn1ccc([N+](=O)[O-])n1)NCc1cccs1	2.9	0.9	0.66	-0.7	5%	i	4.1
N#CC1=C2C=Cc3ccccc3N2CCCC1=O	3.4	2.7	0.72	-1.9	7%	.	.
Cc1ccccc1CN1CCN(S(C)(=O)=O)CC1	-1.2	-2.7	0.71	0.8	-5%	.	.
COc1ccc(NC(=O)NNC(=O)c2ccc3ccccc3c2O)cc1OC	-150	0.5	0.65	0.2	-3%	i	-1.9
Cc1c(Cl)cccc1NC(=O)CNC(=O)C1CCN(C(=O)Nc2ccccc2)CC1	1.3	.	0.73	0.3	-5%	i	-2.0
CC(C)n1cc(CN2CCCC(C(=O)Nc3cccc(-c4cc5ccccc5[nH]4)c3)C2)cn1 (stereo not given)	.	2.1	.	1.5	.	i	9.9
CC1(c2ccccc2Cl)NC(=O)N(CC(=O)N2CCc3ccccc32)C1=O (stereo not given)	2.7	.	0.66	-1.8	-4%	.	-2.3
c1csc(C2Nc3cccc4cccc(c34)N2)c1	-1.4	7.4	0.64	0.8	22%	.	.
COc1ccc(-c2cc(-c3n[nH]c(=S)n3-c3ccccc3Cl)[nH]n2)cc1	1.3	-0.7	0.67	-1.9	4%	i	-2.3
COc1cc(C2CC(c3ccccc3)=NN2c2ccccc2)ccc1OCC(=O)O (stereo not given)	i	7.0	0.71	-0.6	.	.	-8.7
CCOC(=O)c1ccc(NC(=O)CC2Sc3ncnn3C2=O)cc1 (stereo not given)	-2.4	-3.8	0.69	-1.5	-5%	.	.
Cc1cc(C)nc(-n2nc(C)c3c(C(=O)O)cc(-c4cccc(Br)c4)nc32)n1	-8.6	-1.5	0.69	-1.0	.	i	-1.1
COc1cc2c(cc1OC)CN(CC(=O)Nc1ccccc1C(=O)NC1CC1)CC2	-0.8	.	0.7	-4.1	-19%	i	-4.9
Cc1cc2oc(=O)c(CC(=O)NCCCO)c(C)c2c2occ(C(C)(C)C)c12	-216	-3.5	0.67	-1.8	1%	i	-0.8
COc1ccc(S(=O)(=O)N2CCC(C(=O)NCCCN3CCOCC3)CC2)cc1	1.8	-5.5	0.69	-1.0	.	i	-2.4

Bioassay records (PubChem BioAssay)

A portion of the library (hit frequency here may not be typical).
